# Screens from PubChem.
# LANA-H2A inh: blockers of LANA interaction with H2A/H2B – biochemical, FP readout, HTS, primary screen; inhibition, % (no concentration beside the values); 320,000 compounds, 0.6% hits; AID 2629, 2010; cell-free LANA-H2A/H2B peptide, fluorescence polarization; in the data active means inhibition mostly above about 10%, no sharp cut-off; inactive means mostly below about 6.7%;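 further: stock transfer was 7.5 nL into about 10 µL; 0% = median of vehicle wells and 100% = median of positive control wells; one replicate is shown; the record names a cut of 25% in any replicate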
# Target sequence (Q9QR71 whole entry, looked up): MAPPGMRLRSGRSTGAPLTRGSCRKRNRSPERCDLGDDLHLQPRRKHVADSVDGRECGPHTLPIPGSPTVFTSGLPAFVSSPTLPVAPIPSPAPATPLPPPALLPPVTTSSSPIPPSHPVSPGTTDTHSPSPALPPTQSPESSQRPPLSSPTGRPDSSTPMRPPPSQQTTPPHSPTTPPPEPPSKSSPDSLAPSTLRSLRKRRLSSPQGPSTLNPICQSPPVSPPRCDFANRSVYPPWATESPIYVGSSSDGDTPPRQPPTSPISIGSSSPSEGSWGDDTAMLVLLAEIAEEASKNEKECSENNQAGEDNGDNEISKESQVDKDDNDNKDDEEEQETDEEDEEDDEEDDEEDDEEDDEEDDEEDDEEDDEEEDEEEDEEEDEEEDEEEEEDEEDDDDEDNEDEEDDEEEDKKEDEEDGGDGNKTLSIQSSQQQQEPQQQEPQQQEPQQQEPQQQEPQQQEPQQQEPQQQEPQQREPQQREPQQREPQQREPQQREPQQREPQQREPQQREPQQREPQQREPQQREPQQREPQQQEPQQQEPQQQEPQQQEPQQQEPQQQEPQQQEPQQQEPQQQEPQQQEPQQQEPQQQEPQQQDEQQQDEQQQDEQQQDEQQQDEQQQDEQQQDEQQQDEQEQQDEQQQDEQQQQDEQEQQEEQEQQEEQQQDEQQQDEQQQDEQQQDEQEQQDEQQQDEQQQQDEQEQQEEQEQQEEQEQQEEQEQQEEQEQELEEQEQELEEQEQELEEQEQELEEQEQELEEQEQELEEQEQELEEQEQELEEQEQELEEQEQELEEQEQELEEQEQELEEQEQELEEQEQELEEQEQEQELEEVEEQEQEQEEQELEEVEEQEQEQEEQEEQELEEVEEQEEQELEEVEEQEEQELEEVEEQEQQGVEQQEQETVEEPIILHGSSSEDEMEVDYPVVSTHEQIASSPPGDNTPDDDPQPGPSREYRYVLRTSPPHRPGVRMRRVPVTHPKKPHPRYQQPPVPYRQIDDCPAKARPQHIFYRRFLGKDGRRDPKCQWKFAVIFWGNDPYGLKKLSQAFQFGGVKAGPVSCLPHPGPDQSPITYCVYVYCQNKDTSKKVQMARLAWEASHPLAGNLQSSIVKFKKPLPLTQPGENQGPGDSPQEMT
# Vif A3G: inhibitors of Vif binding to APOBEC3G peptide, primary screen, biochemical, TR-FRET, GST-Vif 1-94, biotin-A3G peptide, dose response retest (AID 1117319) | TR-FRET GST-Vif / biotin-A3G peptide binding; higher % means a stronger effect; test concentration not given here; strong numbers were not always called active | Virion infectivity factor (Human immunodeficiency virus type 1 group M subtype B (isolate … | inhibition, %; hits with a dose series show IC50 in µM | 260,000 compounds, 0.57% hits;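 active means above the screen mean plus three standard deviations and confirmed in dose response; inconclusive means results disagree or hit not tested in dose response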;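 further: Vif residues 1-94 fused to GST binding biotinylated APOBEC3G peptide 110-148; 0% = full assay without inhibitor and 100% = GST in place of GST-Vif; retest series ran down from 100 µM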
# HNF4A DNA FP: change in binding of human HNF4A to DNA, primary screen, biochemical, fluorescence polarization, FITC-DNA | 360,000 compounds, 0.3% hits | Hepatocyte nuclear factor 4-alpha (Homo sapiens), P41235 | 1 h | activity change, % at 10 µM; in the data active means activity change above about 30%, passing the limit was not always enough;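 further: controls were the assay level and a saturating level of protein; the project sought stronger binding though the title names inhibitors; some compounds called inactive have numbers as strong as hits; positive values seem to mean higher polarization but the record does not say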
# ALR inh: inhibitors of human ALR sulfhydryl oxidase, primary screen, biochemical, H2O2 detection, HRP-luminol luminescence, single point | FAD-linked sulfhydryl oxidase ALR (Homo sapiens), P55789 | purified ALR, DTT oxidation | inhibition, % (test concentration not listed) | 290,000 compounds, 3.8% hits | AID 485317, 2010;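 active means mean and each replicate at 75% or more; inconclusive means only one of the two met; inactive means neither met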;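 further: stock transfer was 7.5 nL into about 7.5 µL; 0% = neutral wells and 100% = wells with inactivated enzyme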
# RanGTP-Imp inh: inhibitors of RanGTP-importin-beta interaction, primary screen, biochemical, FRET, CFP-Ran, YFP-importin-beta, homogeneous | Ran GTPase (GTP-bound) - importin-beta complex | cell-free CFP-Ran/YFP-importin-beta FRET ratio | inhibition, % (concentration not given with the values) | 300,000 compounds, 1.1% hits;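 active means most replicates above 15%; inconclusive means exactly half above 15%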;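 further: 0% = DMSO wells and 100% = Ran loaded with GDP instead of GTP; wells of about 40 µL received 100 nL stock; the first replicate is given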
# B2AR ag: beta2AR agonists driving receptor internalization, primary screen, cell-based, FAP fluorogen, flow cytometry; Am2.2-beta2AR cells; reference of the scale not given here; response, % (no concentration beside the values); AID 504454, 2011; 340,000 compounds, 0.43% hits; Beta-2 adrenergic receptor (Homo sapiens), P07550;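 active means response above a set limit, near 3 SD of response in nonfluorescent compounds, cut at about 42% in these data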;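 further: stock transfer was 100 nL into about 11 µL; a reference agonist was the positive control; negative values mostly stem from fluorescent compounds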
# Calb FLC: C. albicans growth inhibition with fluconazole, primary screen, CaCi-2 strain, Alamar Blue fluorescence; C. albicans CaCi-2 (fluconazole-resistant clinical isolate) + fluconazole, 48 h; growth inhibition, % (test concentration not listed); 300,000 compounds, 0.57% hits;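 active means most replicates above 75%; inconclusive means exactly half above 75%; inactive means most below 75%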;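 further: all wells also contain fluconazole at 8 µg/ml as a sub-toxic cotreatment; 0% = median of DMSO wells and 100% = median of geldanamycin control wells; wells of about 8 µL received 7.5 nL stock; the first replicate is given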
# An asterisk follows results filed as active; ? = inconclusive; . = not tested or not shown.
# Values run as follows: LANA-H2A inh	Vif A3G	HNF4A DNA FP	ALR inh	RanGTP-Imp inh	B2AR ag	Calb FLC
- COc1ccc(C[C@@H]2CN3C(=NC[C@@H]3Cc3ccc(O)cc3)N2C[C@H](C)NC(=O)CCC2CCCCC2)cc1
    10.5	.	2.1	-16.1	1.4	18.1	-9.0
- CC1=C(C(=O)Nc2ccc(C(=O)N3CCN(c4cccc(Cl)c4)CC3)cc2)SCCO1
    3.8	.	-0.2	-1.6	4.2	2.3	-21.8
- COc1ccc(CN(C)C(=O)c2ccc(NS(=O)(=O)c3ccc4[nH]c(=O)[nH]c4c3)cc2)c(OC)c1OC
    0.7	.	2.1	25.2	.	4.1	.
- COc1ccc(S(=O)(=O)N2CCC(C(=O)N[C@@H](C)C(=O)NCc3ccccc3OC)CC2)cc1
    -1.3	.	-2.5	-2.2	-2.3	-3.4	3.2
- O=C(NNC(=O)c1cc2ccccc2cc1O)Nc1ccccc1F
    -7.2	.	0.8	5.8	-3.7	2.6	87.1*
- Cc1cccc(-c2cnn(-c3cccc([N+](=O)[O-])c3)c2N)c1
    -5.1	-8.3%	3.6	92.5*	-2.5	4.9	1.8
- Nc1nnc(CC(=O)N/N=C/c2ccc(-c3ccc(Cl)cc3Cl)o2)s1
    -1.8	?	3.1	.	6.5	3.3	4.4
- CCOC(=O)C1=C(C)N=C2SC(C(=O)OC)=CC(=O)N2C1c1cc(OC)c(OC)c(OC)c1 (configuration not stated)
    -0.9	11µM*	-4.9	-2.0	2.3	1.7	-1.3
- COc1ccccc1OCc1ccc(C(=O)n2nc(C)c(Cl)c2C)o1
    -4.1	18.9%	-3.4	-35.1	1.3	-3.4	7.7
- O=C(c1cccs1)c1sccc1Cc1ccccc1
    .	-3.1%	-3.3	.	.	-2.2	.
- C=C1CCN([C@@H](Cc2ccccc2)C(=O)NCc2ccc(Cl)cc2)S(=O)(=O)c2ccccc21
    2.9	.	1.1	-4.1	2.4	6.0	1.9
- c1ccc(Cn2nnc3c(N4CCc5ccccc54)ncnc32)cc1
    2.4	-5.1%	0.1	.	4.8	-5.8	-2.4
- NC(=O)Nc1ccc(Oc2ncc(C(F)(F)F)cc2Cl)cc1
    -0.1	-3.8%	3.8	-0.2	3.5	-3.0	-8.3
- CC(=O)Nc1ccccc1C(=O)N1CC(C)OC(C)C1 (configuration not stated)
    3.3	9.2%	1.4	-19.1	5.2	-5.3	-1.7
- Cc1ccc(S(=O)(=O)NCCSCc2ccccc2)cc1
    3.7	-6.3%	3.6	-2.2	-7.4	5.5	-11.2
- CCN(CC)c1ccc(NS(=O)(=O)c2cn(C)c(=O)n(C)c2=O)c(C)c1
    -0.2	.	1.9	98.9*	-1.1	-24.7	-8.1
- CCOc1ccc(CCNC(=O)c2cccs2)cc1OCC
    -3.0	.	3.7	-8.0	-2.6	7.6	-2.8
- NC(=O)CSc1nc2ccccc2n1Cc1ccccc1F
    -3.2	-11.4%	-1.4	-10.9	0.0	-4.3	5.4
- COc1cc(OC)c(C(=O)NNC(=O)CN(C)S(=O)(=O)c2ccc(Cl)cc2)cc1OC
    -2.0	-9.9%	-1.7	-9.4	-1.0	-7.4	-0.6
- CCC(=O)N1CC2(CC(c3cccc(NC(=O)CC(c4ccccc4)c4ccccc4)c3)=NO2)C[C@H]1C(N)=O (some centres not stated)
    1.1	4.0%	-0.2	-2.7	10.3	10.7	-0.9
- Cc1ccccc1NC(=O)c1ccc(CN2CC(=O)N3CCCCC3C2=O)cc1 (configuration not stated)
    4.7	.	0.9	-5.6	0.5	7.7	-17.7
- CCO/C(C)=N/n1c2nc3ccccc3nc2c2c(=O)n(CC(C)C)c(C)nc21
    0.2	3.0%	-1.9	-5.7	1.2	-25.5	-18.4
- COc1ccc(NC(=O)c2ccccc2NC(=O)c2ccco2)cc1
    -1.9	.	2.6	0.4	-1.6	-0.4	-0.1
- COc1ccc(C(=O)Nc2cccnc2)cc1C(=O)Nc1cccnc1
    0.8	.	-3.7	-5.5	-4.7	-5.2	.
- Cc1ccc(NC(=O)CNc2ccc(OC(C)C)cc2)c(C)c1
    6.1	0.9%	1.3	9.9	.	14.8	-3.8
- O=C(CCc1nc(-c2ccccc2)no1)NCc1ccccc1CN1CCOCC1
    26.5*	14.8%	-4.2	-2.5	.	-14.4	.
- CCN(CC1COc2ccccc2O1)C(=S)Nc1ccc(F)cc1 (configuration not stated)
    0.5	-3.3%	1.9	-0.4	-2.4	1.5	-5.7
- COc1cccc(C(=O)N(Cc2nc(-c3ccc(C)cc3)no2)C(C)C)c1
    1.1	-3.5%	3.4	6.3	-0.2	-2.6	2.6
- COc1ccc(OC(=O)c2cccc(S(=O)(=O)N3CCCC3)c2)cc1
    1.5	-2.4%	1.8	11.5	0.0	-0.9	-11.9
- NC(=O)c1ccc(-c2nnn(CC(=O)N(C3CCCC3)C3CCS(=O)(=O)C3)n2)cc1 (configuration not stated)
    -2.2	-6.1%	-2.4	-0.2	.	-0.6	.
- CN(C)CCN(C(=O)c1ccc(C(=O)c2ccccc2)cc1)c1nc2cc3c(cc2s1)OCO3
    6.3	.	0.1	3.6	-1.9	-2.5	1.7
- Cc1cc(C)c(NS(=O)(=O)c2ccc3c(c2)NC(=O)CC(=O)N3)c(C)c1
    0.3	11.3%	-0.7	.	7.7	-3.9	0.6
- CC1CCN(c2nc3ccccn3c(=O)c2C=O)CC1
    4.2	.	-1.7	.	-0.5	-16.1	11.6
- Cc1nc(NS(=O)(=O)c2ccc(Br)cc2)c2c3c(sc2n1)CCC3
    5.5	-2.2%	1.2	46.0	-0.4	-3.9	92.2*
- CCOc1ccccc1C1C(C(N)=O)=C(C)Nc2nc(-c3ccccc3Cl)nn21 (configuration not stated)
    -1.0	11.1%	-0.1	29.5	-3.2	8.9	9.2
- O=C(CNC(=O)C(c1ccccc1)c1ccccc1)N/N=C/c1cccnc1
    2.1	.	-6.2	-10.6	0.3	2.0	-3.7
- Cc1nn(CCc2nn[nH]n2)c2nc(-c3ccc(Br)cc3)cc(C(F)(F)F)c12
    -1.6	.	-0.9	9.7	-3.3	10.4	40.3
- COc1ccc(-n2nc(C(=O)NCC(=O)N3CCC(C(N)=O)CC3)c3ccccc3c2=O)cc1
    -0.2	.	1.8	7.3	9.6	-4.6	-2.3
- Cc1cc(-n2c(C)cc(C(=O)CSc3nncn3C(C)C)c2C)no1
    0.5	0.0%	-2.3	.	1.5	-1.1	-4.1
- Cc1ccccc1NC(=O)Cc1c(O)c2ccccc2[nH]c1=O
    -2.1	-1.4%	-1.7	11.9	2.7	2.3	-11.7
- CCC(CO)NC(=O)c1ccc(-c2nn(C)c(=O)c3ccccc23)cc1 (configuration not stated)
    3.7	-0.7%	-3.6	-30.5	-3.5	1.1	-7.5
- O=C1NC(=O)/C(=C/c2ccc(O)cc2)S1
    -11.2	5.2%	0.2	99.0*	-1.1	-3.6	-19.6
- Cc1cccc(N(C)S(=O)(=O)c2cc3c(cc2C)n(C)c(=O)c(=O)n3C)c1
    6.4	-3.1%	0.8	-5.8	-3.0	-2.5	-11.3
- COc1ccccc1N1CCN(S(=O)(=O)c2cccs2)CC1
    -5.0	-2.9%	0.6	66.5	-0.1	4.6	6.1
- CCc1ccc(S(=O)(=O)Nc2ccc(-c3ccc4nnc(C)n4n3)cc2)s1
    .	-1.8%	2.3	1.9	.	5.7	.
- O=C(COC(=O)c1cc([N+](=O)[O-])ccc1N1CCOCC1)NCCc1ccccc1
    3.3	-5.1%	2.0	-1.8	1.7	-9.7	-0.5
- COc1ccc(S(=O)(=O)NCCc2csc(C)n2)cc1C
    -0.5	-2.2%	-4.5	0.7	-0.3	10.4	50.4
- CC(C)(C)c1ccc(N2C(=O)Cc3c2nc(N)c(C#N)c3N)cc1
    -6.0	16.0%	-1.6	-6.8	6.6	1.0	3.3
- CC(=O)NCc1ccc(S(=O)(=O)NC2CCN(Cc3ccccc3)CC2)cc1
    2.7	5.2%	.	2.8	7.2	.	-0.9
- Cc1cc(OCC(=O)Nc2ccncc2)cc(C)c1Br
    2.0	8.3%	2.2	-8.0	-0.2	-0.6	-0.4
- N#Cc1cccn1-c1nccc(-c2cccs2)n1
    -1.5	5.1%	7.1	3.2	1.9	5.5	15.9
- O=C(O)Cc1ccc(S(=O)(=O)N2CCCC2)s1
    2.4	9.8%	-15.3	.	.	0.7	.
- CCOc1ccc(NC(=O)C(=O)NCCN2CCN(S(=O)(=O)c3ccccc3)CC2)cc1
    15.9	-1.6%	3.6	-2.8	-1.9	4.9	-9.0
- C=CCC(CC=C)(NC(=O)c1ccccc1C(=O)O)c1ccccc1
    2.0	.	2.1	1.5	0.1	1.9	7.7
- O=C(CNC(=O)C1CC(=O)N(c2cccc3ccccc23)C1)Nc1ccccc1Br (configuration not stated)
    -1.5	-6.5%	-4.0	-26.9	.	1.9	.
- COc1ccc(OC)c(NC(=O)CCNS(=O)(=O)c2cc(Br)cnc2N)c1
    -2.0	5.8%	2.6	-8.7	-0.5	-4.1	-6.9
- O=C(CSc1nnnn1-c1ccc(O)cc1)NC1CCCCC1
    -5.5	.	3.6	.	-2.0	-10.8	-7.4
- CCOc1ccc(S(=O)(=O)N(CC(=O)N2CCC(C(N)=O)CC2)c2ccc(F)cc2)cc1
    5.1	.	-0.1	-5.2	26.9*	-3.6	4.9
- Cc1ccccc1C(=O)NCC(=O)N1CCN(c2ccccn2)CC1
    2.2	-6.9%	4.8	-4.4	.	0.7	.
- O=C1[C@H]2[C@@H](/C=C/c3ccccc3)N3C(=O)CN(CCO)C(=O)[C@@]3(Cc3ccccc3)[C@H]2C(=O)N1c1ccccc1
    -4.9	.	3.3	-9.3	6.6	4.1	-1.0

# Next part
# Values run as follows: LANA-H2A inh	Vif A3G	HNF4A DNA FP	ALR inh	RanGTP-Imp inh	B2AR ag	Calb FLC
- CCOC(=O)c1cc2sccc2n1CC(=O)Nc1ccc(OC)c(OC)c1
    4.3	-3.5%	-1.0	-3.7	4.8	-0.6	-1.0
- Cc1nc2ccc(NC(=O)c3cccs3)cc2c(=O)n1Cc1ccc(Cl)cc1
    -2.9	8.4%	0.3	-9.5	0.9	5.5	?
- O=C(CSc1ccccc1C(=O)O)NCC1CCCCC1
    -3.6	6.8%	2.8	-3.5	3.2	-3.3	10.0
- Brc1ccc(COn2ccnc2)cc1
    .	-6.9%	-3.2	.	1.3	-5.6	22.9
- CN(C)S(=O)(=O)c1cccc(NC(=O)CO/N=C(\N)c2ccccc2)c1
    -0.1	9.0%	4.7	-2.9	-1.4	0.0	37.9
- O=C(COc1ccc2c3c(c(=O)oc2c1)CCCC3)N[C@@H](Cc1ccccc1)C(=O)O
    0.7	.	-0.3	-1.7	1.1	-20.0	-0.8
- O=C(NC(=S)Nc1ccc(CN2CCCCC2)cc1)c1ccco1
    2.5	-0.1%	-3.0	9.2	-1.8	-12.3	-5.0
- COc1ccccc1C(=O)COC(=O)Cc1ccccc1F
    -1.6	-4.8%	1.6	1.5	.	1.2	.
- Cc1cc(C)nc(NC(=O)COc2cc(Cl)cc(Cl)c2)n1
    14.2	0.5%	-0.3	-4.5	-1.9	-8.0	2.1
- CC(=O)Nc1ccc(NC(=O)CSc2nc3nc(C)cc(C)c3c(=O)[nH]2)cc1
    -2.4	.	1.4	-10.6	1.3	1.1	2.6
- CCOc1cc(CNCc2ccccn2)cc(Cl)c1OC
    1.5	12.0%	-3.3	-0.2	-2.6	-2.8	19.6
- O=C(N/N=C/c1ccc([N+](=O)[O-])o1)C1CC1
    1.3	?	-5.5	.	-2.5	2.5	1.4
